Source: PubChem BioAssay (several laboratories)
CBX7 AlphaScr: inhibitors of human CBX7 binding to H3K27me3 peptide. O95931. AlphaScreen His6-CBX7 / biotin-H3K27me3 peptide binding; hits give low values. normalised signal (fraction of DMSO) (no concentration beside the values). 66,000 tested, 1.1% active. AID 1224903; in the data active = normalised signal below about 0.5;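 note: 100 nL library stock added to about 20 µL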
Target sequence (O95931 whole entry, looked up): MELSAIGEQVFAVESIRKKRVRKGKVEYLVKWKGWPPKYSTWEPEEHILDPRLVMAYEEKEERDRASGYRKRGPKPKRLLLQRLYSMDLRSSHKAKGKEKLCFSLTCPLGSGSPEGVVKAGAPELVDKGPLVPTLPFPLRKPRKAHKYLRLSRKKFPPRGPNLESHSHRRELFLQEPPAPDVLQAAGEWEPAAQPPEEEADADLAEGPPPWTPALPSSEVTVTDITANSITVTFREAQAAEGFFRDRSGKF
CBX7 AlphaScr z-score: also measured in CBX7 AlphaScr; calls as there; z-score; measured here: z-score of CBX7 signal; some inactives read as strong as hits; reference of the scale not given here;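 same signal on another scale; lower means less binding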
The depositor's hits bear a star; & = joins results of further samples; ! = repeats disagree. Only part of the results is shown; count on the stated rates, not on these rows.

SMILES | CBX7 AlphaScr | CBX7 AlphaScr z-score
CCOc1ccc(CCNC(=O)c2cccc3c2C(=O)N(Cc2cccnc2)C3)cc1OCC | 0.96 | -0.53
COc1cc(NS(=O)(=O)c2ccc3ccccc3c2)c2ncccc2c1 | 0.62 | -4.9
COc1ccc(OC)c(NC2c3ccccc3C(=O)N2c2ccc(Cl)cn2)c1 (centres undefined) | 0.34* | -18*
CCCCn1c(C(C)NC(=O)C(C)(C)C)nc2ccccc21 (centres undefined) | 1 | 0.44
Cc1ccc2c(c1)N(CCCC(=O)NCc1cccnc1)C(=O)CO2 | 1.5 | 1
CC(NC(=O)CN1C(=O)COc2ccc(S(=O)(=O)N3CCOCC3)cc21)c1ccccc1 (centres undefined) | 0.98 | -0.44
CC(=O)N1CCc2cc(S(=O)(=O)Nc3ccc(C(C)C)cc3)ccc21 | 1 | 0.042
Cc1ccc(O)c2c1CCC1C2CCC2(C)CC(=O)CC12 (centres undefined) | 0.84 | -2.6
COc1cccc(C2c3c(-c4ccccc4)n[nH]c3C(=O)N2c2ccc(Cl)cc2)c1 (centres undefined) | 0.87 | -3.1
Cc1ccc2cc(CCNC(=O)C(C)(C)C)c(=O)[nH]c2c1 | 1 | 0.2
COc1ccc2nc(SCC(=O)Nc3ccc(Cl)cc3)[nH]c2c1 | 0.94 | -0.41
COc1ccc(CC(=O)Nc2ccc3nc(N4CCN(c5ncccn5)CC4)cc(C)c3c2)cc1 | 1.1 | 0.53
O=C(Nc1ccc2c(c1)OCO2)C1CCCN(S(=O)(=O)c2cccs2)C1 (centres undefined) | 0.98 | -0.89
CCCCNC(=O)CN1C(=O)C(CC)Oc2ccc(C)cc21 (centres undefined) | 1.2 | 2.8
Cc1cc(Cl)ccc1OCc1cn2cccnc2n1 | 0.81 | -2.3
Cc1ccc(S(=O)(=O)c2cn(CC(=O)Nc3cccc(C)c3)c3ccc(Cl)cc3c2=O)cc1 | 0.98 | -0.22
O=C1c2ccccc2C(Nc2cccc(C(F)(F)F)c2)N1Cc1ccccc1 (centres undefined) | 0.83 | -4.7
COc1ccc(C(=O)N(Cc2nc(-c3ccc(Cl)cc3)no2)C(C)C)cc1OC | 0.98 | -0.41
O=C(Nc1ccc(F)c(Cl)c1)C1c2ccccc2C(=O)N2CCc3ccccc3C12 (centres undefined) | 1.1 | 1.3
Cc1cc(N2CCN(C)CC2)nc2ccc(NC(=O)Cc3cccs3)cc12 | 1 | 0.89

Compound profiles, from the list above:
CCCCNC(=O)CN1C(=O)C(CC)Oc2ccc(C)cc21 (centres undefined) is listed with CBX7 AlphaScr: 1.2; CBX7 AlphaScr z-score: 2.8
Cc1cc(N2CCN(C)CC2)nc2ccc(NC(=O)Cc3cccs3)cc12 is listed with CBX7 AlphaScr: 1; CBX7 AlphaScr z-score: 0.89
COc1ccc(OC)c(NC2c3ccccc3C(=O)N2c2ccc(Cl)cn2)c1 (centres undefined) is listed with CBX7 AlphaScr: 0.34*; CBX7 AlphaScr z-score: -18*

The list goes on.
SMILES | CBX7 AlphaScr | CBX7 AlphaScr z-score
Fc1ccccc1/C=C/c1ccc2cccc(OCc3ccccc3)c2n1 | 1.9 | 11
Cc1ccc(C)c(-n2nnnc2SCc2ccccc2Br)c1 | 0.82 | -1.7
Cc1cc(OCC(=O)Nc2ccc(S(=O)(=O)Nc3ncccn3)cc2)cc(C)c1Cl | 1.1 | 1.9
Cc1ccccc1Nc1nc(-c2cc3ccccc3o2)cs1 | 0.81 | -2.9
CC1CCN(S(=O)(=O)c2cccc(C(=O)Nc3ccccc3C(=O)Nc3ccccc3)c2)CC1 | 0.95 | -0.58
CCCCCNC(=O)Cc1ccc(NC2=NC3CS(=O)(=O)CC3S2)cc1 (centres undefined) | 0.92 | -0.91
CC1CCCN(C(C(=O)Nc2ccc(C(C)C)cc2)c2ccccc2)C1 (centres undefined) | 1.1 | 0.42
COc1ccccc1-c1cc(C(F)(F)F)nc(S(=O)(=O)CCCC(=O)Nc2ccccc2F)n1 | 1 | 0.22
COc1cccc(C2(c3ccc(O)cc3)CCCC2)c1 | 1 | 0.59
O=S(=O)(Nc1nc2ccccc2nc1Nc1ccccc1Cl)c1ccccc1 | 0.72 | -8.1
Cc1c(C)n(CC(O)CNc2ccccc2)c2ccccc12 (centres undefined) | 0.25* | -4.9*
CCOC(=O)c1c(NC(C)=O)sc2c1CCCC2O (centres undefined) | 1 | 0.0045
N#Cc1nc(COc2ccccc2F)oc1N1CCCCC1 | 0.79 | -9.1
Cc1ccc(NC(=O)Cn2nc(-c3ccc(C)cc3)c3ccccc3c2=O)cc1 | 0.93 | -1.4
NC(=O)c1c(NC(=O)CN2CCOCC2)sc2c1CCCC2 | 1 | 0.0067
Cc1ccc2c(c1)N(CCC(=O)NC1CCCCC1C)C(=O)CO2 (centres undefined) | 1.1 | 1.3
Cc1cc(N2CCCCC2)nc2ccc(NC(=O)C3CCC(C(C)(C)C)CC3)cc12 (centres undefined) | 1.2 | 3.1
COc1cccc(NC(=O)COc2cc(C)ccc2C(C)(C)C)c1 | 0.97 | -0.076
CC1CCCCC1NC(=O)C1CCN(S(=O)(=O)c2cccc3cccnc23)CC1 (centres undefined) | 1.1 | 1.3
Cc1cc(C(=O)CN2CC(C)OC(C)C2)c(C)n1-c1ccc(Cl)c(Cl)c1 (centres undefined) | 0.89 | -1.4

Grouped by structure: those above with an aryl thioether with sulfur outside any ring.
SMILES | CBX7 AlphaScr | CBX7 AlphaScr z-score
COc1ccc2nc(SCC(=O)Nc3ccc(Cl)cc3)[nH]c2c1 | 0.94 | -0.41
Cc1ccc(C)c(-n2nnnc2SCc2ccccc2Br)c1 | 0.82 | -1.7

Next part.
SMILES | CBX7 AlphaScr | CBX7 AlphaScr z-score
Cc1ccccc1Nc1cc(C(=O)NCc2ccc(Cl)cc2)c2ccccc2n1 | 0.9 | -1.6
Cc1ccccc1Nc1c(-c2c[nH]c3ccccc23)nc2cccc(C)n12 | 1.1 | 0.83
CN(C)CCNC(=O)c1ccc2c(c1)N(Cc1ccccc1)C(=O)CS2 | 1 | 0.51
CN(C(=O)CCc1nc(-c2ccccc2F)no1)c1ccccc1F | 0.94 | -0.97
N#Cc1nc(-c2ccccc2)oc1NCCc1ccccc1 | 0.74 | -0.3
Cc1ccc(CCNC(=O)c2c[nH]c3ccc(S(=O)(=O)Nc4ccccc4C)cc3c2=O)cc1 | 0.86 | -2.6
COC(=O)c1ccccc1NC(=O)CCc1c(C)nc2cc(-c3ccc(Cl)cc3)nn2c1C | 0.99 | -0.36
CCOC(=O)N1CCC(NC(=O)c2csc3c2CCCC3)CC1 | 1 | -0.057
O=C(Nc1cc(Cl)cc(Cl)c1)C1CC(=O)N(C2CCCCC2)C1 (centres undefined) | 0.98 | -0.67
CCc1ccc(-c2nc(CN3CCCC(C(=O)NCCCN4CCOCC4)C3)c(C)o2)cc1 (centres undefined) | 1.1 | 1.7
CCCC1CCC(c2ccc(-c3noc(-c4ccc(OC)cc4F)n3)cc2)CC1 (centres undefined) | 1.1 | 0.17
COc1ccc(-n2nnc3c(=O)n(CC(=O)Nc4c(C)cc(C)cc4C)cnc32)cc1 | 0.91 | -1.8
CCN(CC)C(=O)c1ccc(Nc2nnc(-c3ccc(C)c(S(=O)(=O)NC)c3)c3ccccc23)cc1 | 0.77 | -4.4
COc1cccc(C(=O)NC(C)C(c2cccs2)N2CCN(c3ccc(F)cc3)CC2)c1 (centres undefined) | 0.86 | -4.7
O=C(CSc1nc(Nc2ccc(F)c(F)c2)c2ccccc2n1)NCC1CCCO1 (centres undefined) | 1 | 0.11
COc1ccccc1CNC(=O)CCc1c(C)nc2cc(-c3cccc(F)c3)nn2c1C | 0.94 | -1.1
CCCOc1ccc(CNC(=O)C2CCN(c3nn4c(=O)cc(C)nc4s3)CC2)cc1 | 1 | 0.46
CCc1ccccc1NC(=O)C1(C)CC2c3ccccc3C1c1ccccc12 (centres undefined) | 1.1 | 0.74
COc1cccc(-c2nc(SCC(=O)Nc3ccccc3)c(-c3ccccc3)[nH]2)c1 | 0.79 | -9.9
Cc1ccccc1NC(=O)Cn1cc(C(=O)c2ccccc2)c2ccccc21 | 0.88 | -1.3
CCc1c(C)nc2cc(-c3ccc(Cl)cc3)[nH]n2c1=O | 1 | -0.025
CC(=O)Nc1ccc2oc(-c3cccc4c(Br)cccc34)nc2c1 | 1.1 | 2.7
O=C(NC1CCCC1)C1c2cccn2CC(=O)N1c1ccc(F)cc1 (centres undefined) | 0.99 | -0.15
CCC(=O)N1CCc2cc(Br)cc(S(=O)(=O)NCCCN(CC)c3ccccc3)c21 | 0.87 | -6.2
CC(C)Cc1ccc(-c2csc(Nc3ccc4c(c3)OCO4)n2)cc1 | 0.19*! | -8.9*!
COc1cc2c(cc1OC)C(C(=O)NCc1cccnc1)C1c3ccccc3CCN1C2=O (centres undefined) | 1 | 0.96
N#Cc1nc(COc2ccc(Cl)cc2)oc1N1CCN(Cc2ccccc2)CC1 | 0.71 | -13
COc1cc2c(cc1OC)C(c1ccccc1O)NCC2 (centres undefined) | 0.96 | -0.59
FC(F)(F)c1cccc(COc2ccc(-c3nnn(Cc4ccccc4Cl)n3)cc2)c1 | 1.3 | 2.7
Cc1ccccc1Nc1nnc(-c2ccc(C)c(S(N)(=O)=O)c2)c2ccccc12 | 0.92 | -2.7
Cc1ccc(Nc2nc(-c3ccc(Cl)c(Cl)c3)cs2)cc1 | 0.77&0.85 | -4.5&-0.2
O=C(NCc1ccccc1)c1cc(-c2ccccn2)nc2ccccc12 | 1.1 | 3.2
CCOc1cc(-c2ccccc2)nc(N)n1 | 0.88 | -1.3
Cc1cc(=O)n2nc(N3CCC(C(=O)N4CCN(Cc5ccccc5)CC4)CC3)sc2n1 | 1 | 1.1
CC(C)(C)c1ccc(C(=O)Nc2nnc(CCc3ccccc3)s2)cc1 | 0.92 | -0.19
NC(=O)c1c(NC(=O)c2cc(-c3ccc(F)cc3)on2)sc2c1CCCC2 | 1 | 0.018
Cc1nn(-c2ccccc2)c(C)c1CNC(=O)c1ccc2c(c1)OCO2 | 1.1 | 1.1
CCc1ccccc1NC(=O)c1cc(-c2ccc(Cl)cc2)nc2ccccc12 | 1 | -0.011
FC(F)(F)c1cccc(-n2cc(-c3ccccc3)c3c(NCc4ccccn4)ncnc32)c1 | 1.1 | 3.4
O=C(CCCCCN1C(=O)c2ccccc2C1=O)Nc1nc(C2CC2)cs1 | 1 | 0.25
CN(CC(=O)NC1CCCC1)S(=O)(=O)c1ccc2c(c1)n(C)c(=O)c(=O)n2C | 1.1 | 1.4
O=C1CC(N2CCN(c3ccccc3)CC2)C(=O)N1c1ccc(F)cc1 (centres undefined) | 1 | 0.016
COc1ccc(C(=O)NCCc2nc3ccccc3[nH]2)cc1OC | 1.2 | 0.78
COc1ccc(CCNC(=O)C2CCN(S(C)(=O)=O)CC2)cc1OC | 1.1 | 3.8
O=C(Nc1ccc(Cl)c(C(F)(F)F)c1)C(Cc1ccccc1)N1C(=O)c2ccccc2C1=O (centres undefined) | 1 | 0.0003
Cc1cc(NC(=O)C2CCCN(S(=O)(=O)c3cccc4cccnc34)C2)ccc1Br (centres undefined) | 1 | -0.11
CCC12c3ccccc3C(c3ccccc31)C1C(=O)N(c3ccc(Cl)c(C(=O)O)c3)C(=O)C12 (centres undefined) | 0.94 | -0.66
CCOC(=O)c1c(NC(C)=O)sc2c1CCC(C)C2 (centres undefined) | 1.1 | 2.2
O=C(CSc1oc(-c2cccs2)nc1S(=O)(=O)c1ccccc1)Nc1ccc(F)cc1 | 0.88 | -1
CCCOc1ccc(-c2nc3ccccc3c(C(=O)O)c2C)cc1 | 1.1 | 1.3
Cc1ccccc1Cc1c(C)nc2nc(SCC(=O)NCCN3CCOCC3)nn2c1C | 1 | 0.026
COc1ccc(CN2CCN(C3CCN(Cc4ccccc4)CC3)CC2)cc1 | 1 | 0.78
O=C(CSc1nc(-c2ccccc2)cn1-c1ccc(Cl)cc1)c1ccccc1 | 0.94 | -1.7
CC1(C)CC(=O)N(CC(=O)NCc2ccccc2)c2ccccc2S1(=O)=O | 1 | 0.6
Cc1cccc(CC(=O)NCCc2cc3c(C)ccc(C)c3[nH]c2=O)c1 | 1 | 0.22
COc1cccc(Nc2nnc(C(C)(C)C)c(=O)[nH]2)c1 | 1.3 | 0.68
CCN(CC)S(=O)(=O)c1ccc2oc(C(=O)Nc3ccc(F)cc3)c(C)c2c1 | 1.1 | 2.5
Cc1nccc2[nH]c(=O)c(C(=O)NCc3ccc(F)cc3)cc12 | 1.1 | 1
Cc1nnc2ccc(N3CCN(C(=O)c4cccc(F)c4)CC3)nn12 | 1 | 0.67
CN(C)c1ccc(-c2nc3cnccn3c2Nc2ccccc2)cc1 | 1.1 | 1.1

Looked up above.
O=C(CSc1oc(-c2cccs2)nc1S(=O)(=O)c1ccccc1)Nc1ccc(F)cc1 – CBX7 AlphaScr z-score: -1
CN(C)c1ccc(-c2nc3cnccn3c2Nc2ccccc2)cc1 – CBX7 AlphaScr: 1.1

(cont.)
SMILES | CBX7 AlphaScr | CBX7 AlphaScr z-score
COc1ccccc1NC(=O)CN(C)S(=O)(=O)c1ccc2c(c1)n(C)c(=O)c(=O)n2C | 1.1 | 4
CCOc1ccc2nc(NC(=O)C3CCN(S(=O)(=O)c4c(C)nn(C)c4C)CC3)sc2c1 | 1 | 0.3
CCN1CCN(C(=O)C2CCN(C(=O)c3cc4sccc4n3Cc3ccc(Cl)cc3)CC2)CC1 | 1 | 1.5
O=C(c1cccc(C(F)(F)F)c1)N1CCNc2ccccc2C1 | 0.94 | -1.6
